N370S GC mod: qHTS Assay for Inhibitors and Activators of N370S glucocerebrosidase as a Potential Chaperone Treatment of Gaucher Disease; Potency, µM (titrated, usually from 59.4 µM), without a hit: at the highest dose activity change, negative = inhibition, most hits filed as inhibitors; Lysosomal acid glucosylceramidase (Homo sapiens), P04062; AID 2101, 2009; 0.092% of 330,000 active; N370S GC spleen homogenate, 4MU-glucoside fluorescence;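 also: 0% = full enzyme activity and -100% = no enzyme basal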
FEN1 inh: qHTS Assay for the Inhibitors of Human Flap endonuclease 1 (FEN1) | P39748 | Recombinant FEN1 flap cleavage, fluorescence, 15 min | Potency, µM (doses to about 114 µM), for the others: at the top dose activity change, negative = inhibition, actives largely listed as inhibitors | 0.35% of 390,000 active | AID 588795, 2011; also: nearly all actives have a fitted effect of over 65% in size
Target sequence (P39748 whole entry, looked up): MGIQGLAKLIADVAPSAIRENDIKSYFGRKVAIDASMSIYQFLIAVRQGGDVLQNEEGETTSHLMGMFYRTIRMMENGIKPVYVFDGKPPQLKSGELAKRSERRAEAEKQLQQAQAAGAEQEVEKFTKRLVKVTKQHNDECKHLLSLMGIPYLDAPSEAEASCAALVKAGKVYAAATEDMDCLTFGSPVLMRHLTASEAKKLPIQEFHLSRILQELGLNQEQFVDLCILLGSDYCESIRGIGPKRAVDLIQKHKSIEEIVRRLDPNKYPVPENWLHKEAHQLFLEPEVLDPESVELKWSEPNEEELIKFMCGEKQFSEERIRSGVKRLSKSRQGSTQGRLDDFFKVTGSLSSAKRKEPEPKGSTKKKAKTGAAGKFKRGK
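Enzyme 10 nM, 15 min RT preincubation with compound; start with substrate 50 nM final; reads at 0 and 15 min; qHTS titration, four-parameter Hill fit.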
The depositor's hits bear a star; & = joins results of further samples; [ ] = dose if it differs, or a comment. Calls follow the shape of the dose curve; as a rule, active = well fitted curve in the direction sought with a large enough effect; inconclusive = small, poorly fitted or top-dose-only effect, or another doubt; inactive = no such curve, though single readings can be large; an effect the other way counts as inactive or inconclusive. Unless noted, % is scaled to controls: 0 for no effect and ±100 for the full control effect; potency is read from the fitted curve at half-maximal effect. The list is partial, and most or all hits are left out here.

O=c1[nH]c(=O)n(-c2cccc3ccccc23)c(O)c1/C=N/N1CCCCC1c1cccnc1 (centres undefined) was read as N370S GC mod 2% and FEN1 inh -4%.
Nc1ncnc2c1ccn2[C@@H]1O[C@H](CO)[C@@H](O)[C@H]1O was read as N370S GC mod -3% and FEN1 inh 3%.
`O[C@H]1CCCC[C@H]1N1CCC(c2ccccc2)CC1` gave N370S GC mod -3%.
Screening COc1ccc(OCC#CCN2CCC(C)CC2)cc1 returned N370S GC mod -27% and FEN1 inh -4%.
Screening CN(C)c1nc(N(C)C)nc(N(C#N)CCCl)n1 returned N370S GC mod -1% and FEN1 inh 3%.
`COc1ccccc1N1CCN(Cc2ccccc2Cl)CC1` gave N370S GC mod 0% and FEN1 inh -16%.
For COc1ccc(CCNCc2ccccc2F)cc1 the results were N370S GC mod -9% and FEN1 inh 19%.
For CCC(=NCc1cccnc1)c1c(O)n(Cc2ccccc2)c(=O)[nH]c1=O the results were N370S GC mod inconclusive and FEN1 inh -2%.
COc1ccc2c(c1O)-c1c(OC)c(OC)cc3c1[C@H](C2)N(C)CC3 was read as N370S GC mod 1% and FEN1 inh 17%.
`Fc1ccc2c(c1)nnn2C1CCN(Cc2nnnn2C2CCCCC2)CC1` gave N370S GC mod 6% and FEN1 inh -11%.
CCc1ccc(/C=C(/C#N)C(N)=S)cc1 was read as N370S GC mod 2% and FEN1 inh 1%.
`CCOc1ccc(Br)c(C2(O)CC(C)N(C)CC2C)c1` (centres undefined) gave N370S GC mod -3% and FEN1 inh -2%.
`CC(=O)c1cn(CCCOc2ccccc2)c2ccccc12` gave N370S GC mod 11% and FEN1 inh inconclusive.
Screening CCc1ccc2c(CN3CC=C(c4ccccc4)CC3)cc(=O)oc2c1 returned N370S GC mod 6% and FEN1 inh 5%.
C[C@]12CC[C@H](O)CC1=CC[C@@H]1[C@@H]2CC[C@]2(C)C(=O)CC[C@@H]12 was read as FEN1 inh 10%.
`O=c1[nH]c(=S)[nH]c(O)c1N=Nc1ccc2c(c1)OCCO2` gave N370S GC mod -17% and FEN1 inh 7%.
CCOC(=O)C(C)(CC)NC(=O)CSP(=S)(OCC)OCC (centres undefined) was read as N370S GC mod -14% and FEN1 inh 0%.
For NC(=O)Cn1cc(C=C2C(=O)NC(=O)NC2=O)c2ccccc21 the results were N370S GC mod -1% and FEN1 inh inconclusive.
Screening CCCCn1c(=O)c(C(=O)NCCc2ccccc2)c(O)c2ccccc21 returned N370S GC mod -1% and FEN1 inh 1%.
For O=c1c(O)c(-c2ccc(O)c(O)c2)oc2c(O)c(O)cc(O)c12 the results were N370S GC mod 19%.

Some of these compounds in order of length of the SMILES, smallest number first:
For COc1ccc(CCNCc2ccccc2F)cc1 the results were N370S GC mod -9% and FEN1 inh 19%.
CCc1ccc(/C=C(/C#N)C(N)=S)cc1 was read as N370S GC mod 2% and FEN1 inh 1%.
Screening COc1ccc(OCC#CCN2CCC(C)CC2)cc1 returned N370S GC mod -27% and FEN1 inh -4%.
`COc1ccccc1N1CCN(Cc2ccccc2Cl)CC1` gave N370S GC mod 0% and FEN1 inh -16%.
Screening CN(C)c1nc(N(C)C)nc(N(C#N)CCCl)n1 returned N370S GC mod -1% and FEN1 inh 3%.
`CC(=O)c1cn(CCCOc2ccccc2)c2ccccc12` gave N370S GC mod 11% and FEN1 inh inconclusive.
`CCOc1ccc(Br)c(C2(O)CC(C)N(C)CC2C)c1` (centres undefined) gave N370S GC mod -3% and FEN1 inh -2%.
CCOC(=O)C(C)(CC)NC(=O)CSP(=S)(OCC)OCC (centres undefined) was read as N370S GC mod -14% and FEN1 inh 0%.
`Fc1ccc2c(c1)nnn2C1CCN(Cc2nnnn2C2CCCCC2)CC1` gave N370S GC mod 6% and FEN1 inh -11%.
Screening CCCCn1c(=O)c(C(=O)NCCc2ccccc2)c(O)c2ccccc21 returned N370S GC mod -1% and FEN1 inh 1%.
For CCC(=NCc1cccnc1)c1c(O)n(Cc2ccccc2)c(=O)[nH]c1=O the results were N370S GC mod inconclusive and FEN1 inh -2%.
COc1ccc2c(c1O)-c1c(OC)c(OC)cc3c1[C@H](C2)N(C)CC3 was read as N370S GC mod 1% and FEN1 inh 17%.
O=c1[nH]c(=O)n(-c2cccc3ccccc23)c(O)c1/C=N/N1CCCCC1c1cccnc1 (centres undefined) was read as N370S GC mod 2% and FEN1 inh -4%.

The list continues.
For Cc1ccc2c(c1)C1CN(C)CCC1N2C(=O)/C(C#N)=C/c1ccc2c(c1)OCO2 (centres undefined) the results were N370S GC mod -6% and FEN1 inh -2%.
CCOC(=O)[C@@]1(C#N)[C@@H]2C=CC(C(N)=O)=CN2[C@@H](C(N)=O)[C@@H]1c1cccc(Cl)c1 was read as N370S GC mod -2% and FEN1 inh 1%.
For Cc1cc(OC(=O)CCCNC(=O)OC(C)(C)C)c2c3c(c(=O)oc2c1)CCC3 the results were N370S GC mod 25% and FEN1 inh -10%.
CCN(CC)C(=O)c1ccc(NC(=O)c2sccc2-c2ccccc2)cc1 was read as N370S GC mod 0% and FEN1 inh 0%.
Screening O=[N+]([O-])c1ccc(N2CCNCC2)c(Cl)c1 returned N370S GC mod -1% and FEN1 inh -1%.
`CC(C)(C)[C@]1(O)C[C@@H]2OC(=O)C[C@@]23C(=O)O[C@@H]2OC(=O)[C@H](O)[C@]213` gave N370S GC mod -3%&-8%&-8% and FEN1 inh 43%[activator].
`CC(CN(C)C1CCN(C)CC1)c1ccccc1` (centres undefined) gave N370S GC mod 1% and FEN1 inh 5%.
Cc1ccc2c(c1)CC1(CN2C)C(=O)NC(=O)N(CCc2ccccc2)C1=O (centres undefined) was read as N370S GC mod 0% and FEN1 inh -13%.
COc1cccc(CN2CC=C(c3ccc(F)cc3)CC2)c1 was read as N370S GC mod 3% and FEN1 inh 1%.
For CC(C)[N+](C)(CCC(C(N)=O)(c1ccccc1)c1ccccc1)C(C)C the results were N370S GC mod -5% and FEN1 inh 15%.
COc1ccc2c(c1O)-c1c(OC)c(OC)cc3c1[C@@H](C2)N(C)CC3 was read as N370S GC mod 9%.
`CCN1C(=O)C(=Cc2cc(C)n(C3CC3)c2C)C(=O)N(CC)C1=S` gave N370S GC mod 12% and FEN1 inh -1%.
For O=C(N/N=C/c1c(O)n(CCc2ccc(F)cc2)c(=O)[nH]c1=O)c1ccncc1 the results were N370S GC mod -13% and FEN1 inh -3%.
For OC(CCNCCc1c[nH]c2ccccc12)C(F)(F)F (centres undefined) the results were N370S GC mod -6% and FEN1 inh 0%.
Screening CN1Cc2c(ccc3c2OCO3)C2C(O)Cc3cc4c(cc3C21)OCO4 (centres undefined) returned N370S GC mod -3%&-4%.
C=CCn1c(O)c(C(CC)=Nc2ccccc2NC(C)=O)c(=O)[nH]c1=O was read as N370S GC mod -9% and FEN1 inh 19%.
For OC1CCCCC1N1CCC(c2ccccc2)CC1 (centres undefined) the results were N370S GC mod 2%&-20%&-14% and FEN1 inh -7%.
Screening c1ccc2c(CN3CCCCCCC3)c[nH]c2c1 returned N370S GC mod -11% and FEN1 inh -3%.

Arranged by heavy-atom count (descending): part of the list above.
For CC(C)[N+](C)(CCC(C(N)=O)(c1ccccc1)c1ccccc1)C(C)C the results were N370S GC mod -5% and FEN1 inh 15%.
COc1cccc(CN2CC=C(c3ccc(F)cc3)CC2)c1 was read as N370S GC mod 3% and FEN1 inh 1%.
Screening c1ccc2c(CN3CCCCCCC3)c[nH]c2c1 returned N370S GC mod -11% and FEN1 inh -3%.

Assay outcomes as filed in PubChem BioAssay.
